Screens as filed in PubChem.
NPYLR7 ag – activates Aedes aegypti NPYLR7 receptor; HEK293T NPYLR7/Galpha15, GCaMP6s calcium fluorescence; AID 1259423; activation, % at 10 µM; actives 0.15% (n = 270,000); in the data active means activation above about 40%;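 further: 0% = vehicle and 100% = reference agonist at the receptor; some compounds past the cut are filed as inactive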
NPYLR7 ag max-min – second read-out of NPYLR7 ag, no call of its own (marks repeat the call); activation, %; measured here: Max-Min RFU normalised activation; some inactives read as strong as hits;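 span of the calcium signal over five minutes; 0% = vehicle and 100% = native peptide agonist; compound fluorescence can raise it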
* marks the source's active call; other numbers are inactive results. A portion of the library; the hit share may differ from the screen's.

Start of the listing, in advance:
`CCCCN(C=O)c1c(CC)nc2ccc(C(=O)N3CCN(c4ccccc4)CC3)cn12` gave NPYLR7 ag 9 and NPYLR7 ag max-min -2.
For O=[N+]([O-])c1ccc(C(O)CNC(=S)NCc2ccc3c(c2)OCO3)cc1 (stereo not drawn) the results were NPYLR7 ag 2 and NPYLR7 ag max-min -3.

The list itself (from the top)
`CCCCN(C=O)c1c(CC)nc2ccc(C(=O)N3CCN(c4ccccc4)CC3)cn12` gave NPYLR7 ag 9 and NPYLR7 ag max-min -2.
For O=[N+]([O-])c1ccc(C(O)CNC(=S)NCc2ccc3c(c2)OCO3)cc1 (stereo not drawn) the results were NPYLR7 ag 2 and NPYLR7 ag max-min -3.
`CC1(C)C(=O)Nc2ccccc2N1C(=O)COc1ccccc1C#N` gave NPYLR7 ag 4 and NPYLR7 ag max-min 1.
Screening Nc1cc(N)nc(SCC(=O)c2cc3c4c(c2)CC(=O)N4CCC3)n1 returned NPYLR7 ag 8 and NPYLR7 ag max-min 9.
For CC(C)(C)C(=O)N1CCN(c2ncnc3c2nnn3Cc2ccccc2)CC1 the results were NPYLR7 ag -9 and NPYLR7 ag max-min -18.
Screening CC(C)C(NS(=O)(=O)c1ccc(Cl)cc1)C(=O)NCCCN1CCOCC1 (stereo not drawn) returned NPYLR7 ag 17 and NPYLR7 ag max-min 25.
Cc1nc(N2CCCCC2)ncc1-c1cc(=O)[nH]c(N2CCc3ccccc32)n1 was read as NPYLR7 ag 3 and NPYLR7 ag max-min 7.
Screening CCC1CCCCN1C(=O)C(C)N(C)CC(=O)Nc1c(C)cccc1C (stereo not drawn) returned NPYLR7 ag 11 and NPYLR7 ag max-min 9.
For O=C(c1csc(CSc2nnc(-c3ccco3)n2-c2ccccc2F)n1)N1CCC(n2c(=O)[nH]c3ccccc32)CC1 the results were NPYLR7 ag 4 and NPYLR7 ag max-min 11.
C=C(C)CSc1nnc2n(-c3ccccc3)c(=O)c3c(C)c(C)sc3n12 was read as NPYLR7 ag -1 and NPYLR7 ag max-min -2.
Screening CC(=O)NCc1cccc(-c2ccc(O)cc2)c1 returned NPYLR7 ag 1 and NPYLR7 ag max-min 3.
`CCOC(=O)N1CCN(C(=O)c2csc(CSc3nnc(-c4ccco4)n3-c3ccccc3F)n2)CC1` gave NPYLR7 ag 3 and NPYLR7 ag max-min 10.
For CCOC(=O)C1CCCN(C(=O)c2cc(-c3ccc(OC)cc3OC)nn2-c2ccc(Cl)cc2)C1 (stereo not drawn) the results were NPYLR7 ag 12 and NPYLR7 ag max-min 9.
Cc1ccncc1C(=O)N1CCC(=O)N(CC2CC2)C(C(C)C)C1 (stereo not drawn) was read as NPYLR7 ag 1 and NPYLR7 ag max-min -26.
Screening CC(C)Cc1nn(-c2ccccc2Cl)c(C(C)C)c1C(=O)N1CCOCC1 returned NPYLR7 ag 5 and NPYLR7 ag max-min -3.
For Oc1ccccc1-c1cc(C(F)(F)F)on1 the results were NPYLR7 ag 1 and NPYLR7 ag max-min 4.
CCOC(=O)Cn1c(-c2cccnc2)nc2ccccc21 was read as NPYLR7 ag -8 and NPYLR7 ag max-min -14.
For CC(Cn1cccn1)NC(=O)CCNC(=O)c1ccc(F)cc1 (stereo not drawn) the results were NPYLR7 ag 3 and NPYLR7 ag max-min -6.
Screening O=C(NCC1(N2CCCCC2)CCOCC1)c1cccc(Cl)c1 returned NPYLR7 ag -3 and NPYLR7 ag max-min -4.
Screening CCN1CCN(C(=O)CCN(CCc2ccccc2)c2nc(-c3ccco3)nc3ccccc23)CC1 returned NPYLR7 ag 15 and NPYLR7 ag max-min 18.
CC(=O)c1cccc(Nc2cc3c(cn2)nc(-c2ccccc2)n3C)c1 was read as NPYLR7 ag -3 and NPYLR7 ag max-min 0.

Some of these compounds in order of heavy-atom count, low to high.
For CC(Cn1cccn1)NC(=O)CCNC(=O)c1ccc(F)cc1 (stereo not drawn) the results were NPYLR7 ag 3 and NPYLR7 ag max-min -6.
C=C(C)CSc1nnc2n(-c3ccccc3)c(=O)c3c(C)c(C)sc3n12 was read as NPYLR7 ag -1 and NPYLR7 ag max-min -2.
For CC(C)(C)C(=O)N1CCN(c2ncnc3c2nnn3Cc2ccccc2)CC1 the results were NPYLR7 ag -9 and NPYLR7 ag max-min -18.

Reprinted at random: five entries already listed, in no set order.
CCOC(=O)Cn1c(-c2cccnc2)nc2ccccc21 was read as NPYLR7 ag -8 and NPYLR7 ag max-min -14.
Screening O=C(NCC1(N2CCCCC2)CCOCC1)c1cccc(Cl)c1 returned NPYLR7 ag -3 and NPYLR7 ag max-min -4.
Screening CC(C)Cc1nn(-c2ccccc2Cl)c(C(C)C)c1C(=O)N1CCOCC1 returned NPYLR7 ag 5 and NPYLR7 ag max-min -3.
For Oc1ccccc1-c1cc(C(F)(F)F)on1 the results were NPYLR7 ag 1 and NPYLR7 ag max-min 4.
For CC(Cn1cccn1)NC(=O)CCNC(=O)c1ccc(F)cc1 (stereo not drawn) the results were NPYLR7 ag 3 and NPYLR7 ag max-min -6.
